NPYLR7 ag: mosquito NPYLR7 agonism. HEK293T NPYLR7/Galpha15, GCaMP6s calcium fluorescence. activation, % at 10 µM. 0.15% of 270,000 active; in the data active = activation above about 40%;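 note: 0% = vehicle and 100% = reference agonist at the receptor; some compounds past the cut are filed as inactive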
NPYLR7 ag max-min: also measured in NPYLR7 ag; calls as there; activation, %; measured here: Max-Min RFU normalised activation; some inactives read as strong as hits;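 span of the calcium signal over five minutes; 0% = vehicle and 100% = native peptide agonist; compound fluorescence can raise it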
Numbers without * were called inactive. An excerpt; the hit share may differ from the screen's.

SMILES | NPYLR7 ag | NPYLR7 ag max-min
CCCOc1ccc(NCC(=O)Nc2ccc(C)cc2C)cc1 | 0.1 | -4.3
CN(Cc1ccccn1)C(=O)c1ccsc1NC(=O)c1ccco1 | 7.1 | 2.3
CN(C)S(=O)(=O)NC1CC(=O)N(Cc2ccccc2C(F)(F)F)C1 (stereo not drawn) | 0.5 | -4.3
NN1C(=O)/C(=C\c2ccc(O)cc2)SC1=S | 18.9 | 12.1
Cc1cc2cc(CCNC(=O)c3ccc4ccccc4c3)c(=O)[nH]c2cc1C | 1.1 | 10.2
C=Cc1ccc(Cn2c(C)c(C(=O)NCc3ccc4c(c3)OCCO4)sc2=O)cc1 | 14.4 | 7.1
COc1cn(CC(=O)NCc2ccccc2)c(CSc2nccc(C)n2)cc1=O | -1.4 | -7.4
Cc1ccc(C2SCCN2C(=O)Nc2c(C)cccc2C)c(C)c1 (stereo not drawn) | -2.5 | 5.5
CN(C)S(=O)(=O)c1ccc(C(=O)OCc2ccc(Cl)cc2Cl)cc1 | 4.0 | 3.6
Cc1cnc(N2CCCC(OCc3cccnc3)C2)nc1N(C)C (stereo not drawn) | 6.7 | 4.5
COc1ccc2c([N+](=O)[O-])c(Nc3ccc(F)cc3)[nH]c2c1 | 1.4 | 1.9
Cc1cc2c(=O)n(Cc3ccco3)c(SCC(=O)Nc3ccc4c(c3)OCO4)nc2s1 | -8.4 | -5.4
CN(Cc1ccccc1)C(=O)NCc1ccc(-c2nc3ccccc3s2)o1 | 7.4 | 4.0
Cc1ccccc1CNC(=O)Cc1csc(N2CCCC2=O)n1 | 0.7 | 0.2
Cc1cc(=O)n2c(c1C#N)SCC2 | 7.4 | 8.0
OCC(NC1CCC2(CCNCC2)CC1)c1ccccc1 (stereo not drawn) | 11.3 | 7.5
CCOc1ccc(Oc2c(C(F)(F)F)oc3cc(O)ccc3c2=O)cc1 | -4.3 | -11.7
Cc1cccc(NS(=O)(=O)c2ccc(C)c(C(=O)OCC3CCCO3)c2)c1 (stereo not drawn) | 11.4 | 5.5
NC(=O)NN=C1CCCC1c1ccccn1 (stereo not drawn) | 5.6 | 5.3
CCOc1ccc(C(c2c(O)cc(C)n(Cc3ccco3)c2=O)N2CCCCC2)cc1 (stereo not drawn) | 7.2 | 2.8
CC(C)(C)C1CCC(C(=O)OCC(=O)N2CCNC2=O)CC1 (stereo not drawn) | 0.0 | 4.2
O=C(c1ccccc1I)N1CCCC(c2nc3ccccc3[nH]2)C1 (stereo not drawn) | 0.6 | 3.5
CNc1ccc([N+](=O)[O-])cc1C(=O)Nc1ccc(OC(F)F)cc1 | -7.6 | -8.0
CCc1nc2ccc(C(=O)NCCN3CCOCC3)cn2c1N(C)Cc1nccs1 | -4.4 | -5.8
N#Cc1c(N)nc2c(c1N)C(Sc1ccccc1)c1ccc(O)cc1O2 (stereo not drawn) | 412.5* | 585.9*
N#Cc1ccc(C=NNC(=O)CSc2nnc(-c3ccccc3)n2-c2ccccc2)cc1 | 2.8 | 8.2
CCNC(=O)C1(C)CCCN(CC(=O)c2ccccc2OC)C1 (stereo not drawn) | 1.5 | -0.3
CC(C(=O)NN)n1cccn1 (stereo not drawn) | -3.1 | -4.5
CCOC(=O)c1[nH]c(C)c(C(=O)CC(C)(C)C)c1C | 11.9 | 6.7
CC(C)CNC(=O)Cn1nnc(-c2ccc(F)cc2)n1 | 21.8 | 19.9
CCN(C(=O)COc1cc(C)nc(N2CCCC2)n1)c1ccccc1 | -4.2 | -7.7
O=C(CCc1csc(NC(=O)c2ccc[nH]c2=O)n1)NCc1ccco1 | -14.5 | -20.0
Cc1cc2[nH]c3c(c2cc1C)CC(NC(=O)c1c(C)cccc1Cl)CC3 (stereo not drawn) | 13.8 | 8.7
CCn1cc(C(CC(=O)NCCCN2CCOCC2)c2ccc(C)cc2)c2ccccc21 (stereo not drawn) | 5.5 | 17.2
CN(C)C(C(=O)N1CCc2c(nc[nH]c2=O)C1)c1ccc2c(c1)OCO2 (stereo not drawn) | 13.6 | 10.6
CCCCC1CCC(C(=O)Nc2c(C)nc3scc(C)n3c2=O)CC1 (stereo not drawn) | 12.4 | 6.9
CCc1ccccc1NC(=O)Cn1nc(-c2ccc(F)cc2)c2sc(N3CCCC3)nc2c1=O | -4.1 | -4.8
Cc1ccc(NC2(C(=O)NCCSc3ncn[nH]3)CCCC2)cc1 | 4.1 | -3.7
CC1CCN(C(=O)c2cc3c(=O)n4ccccc4nc3n2C)CC1 | -1.2 | -3.7
Cc1ccc(Oc2ncccc2CNC(=O)[C@@H](N)Cc2cnc[nH]2)c(F)c1F | 1.1 | -1.3
CC(C)c1nc(NC(=O)c2cccc(-c3noc(C4CC4)n3)c2)n[nH]1 | 1.9 | -1.0
O=C(c1cc(-c2ccc(Cl)cc2)nc2ccccc12)N1CCCC(C(=O)N2CCOCC2)C1 (stereo not drawn) | -3.3 | 1.4
O=S(=O)(c1cccc2ccccc12)N1CCC2(CCCNC2)C1 (stereo not drawn) | -4.4 | -4.4
CN1CCN(CC(O)CN(C)C(=O)CCCc2ccc(Cl)c(Cl)c2)CC1 (stereo not drawn) | 10.9 | 7.4
CCCn1c(C(=O)N(CC)c2ccccc2)cc2c(=O)n(C)c(=O)n(C)c21 | -4.7 | -5.1
Cc1ccc(C)c(S(=O)(=O)N2CCN(C(=O)c3cnn(-c4ccccc4)c3)CC2)c1 | 1.5 | 6.0
CC1CN(Cc2ccccc2)c2nc3c(c(=O)n(CCCc4ccccc4)c(=O)n3C)n2C1 (stereo not drawn) | 6.7 | 7.3
CCCC(C)(C)C(=O)N1CCC1(C)C(=O)NS(=O)(=O)c1ccc(F)cc1F (stereo not drawn) | -1.5 | -6.8
O=C(Cn1cc(S(=O)(=O)N2CCCC2)ccc1=O)c1cc(F)ccc1F | 8.5 | 5.0
CC(C)CCn1c(COc2ccccc2)nnc1SC1CCCCNC1=O (stereo not drawn) | 13.5 | 4.5

Continued.
SMILES | NPYLR7 ag | NPYLR7 ag max-min
CN(C)c1ccc(NC(=O)c2ccccc2Cl)cc1CN(C(=O)c1ccc(F)cc1)C1CCCCC1 | 2.4 | 4.2
CCOC(=O)c1cc(CC)sc1NC(=O)Cn1c(C)nc2ccccc2c1=O | 2.6 | -8.7
Cc1ccc(OCC(O)Cn2cnc3scc(-c4ccccc4)c3c2=O)c(C)c1 (stereo not drawn) | 3.2 | 4.0
COc1ccc(N2C(=O)CN(C(=O)c3cccc(Cn4nc(C)cc4C)c3)CC23CCCC3)cc1 | -3.6 | -9.1
COc1ccc(C(=O)CSc2nnc(SCC(=O)c3ccc(OC)cc3)s2)cc1 | -1.9 | -3.9
CC(C)Nc1ccc(C(=O)NCC2CCCCC2)cn1 | -3.6 | -7.1
COc1ccc2sc(C(=O)N3CCCc4cc(C)ccc43)c(Cl)c2c1 | -4.3 | -1.1
CCCOC1CCCN(C(=O)c2cccc(Cl)c2)C1 (stereo not drawn) | -2.9 | 1.1
COc1ccc(NC(=O)c2cccc(CN3CCCC3C)c2)cc1OC (stereo not drawn) | 9.5 | 6.9
Cc1cc(CNC(=O)CC2(Cc3ccccc3)C(=O)N(C)c3ccccc32)n[nH]1 (stereo not drawn) | 8.5 | 1.6
Cn1ncc(SCc2ccccc2)c(Br)c1=O | 9.2 | 6.3
CCOC(=O)c1cc2c(=O)n3cccc(C)c3nc2n(CC(C)C)c1=NC(C)=O | 1.4 | 7.4
Cc1oc(-c2ccc([N+](=O)[O-])c(Cl)c2)cc1C(=O)N1CCOCC1 | -3.1 | -3.1
O=C(Nc1cccc(-n2cccn2)c1)C1CCCN(Cc2cccc3c2OCO3)C1 (stereo not drawn) | 5.0 | 2.0
COc1ccc(C(=O)N2CCC3(CC2)OCC(C(=O)O)N3C(=O)c2cccc(C)c2)cc1OC (stereo not drawn) | 12.5 | 10.0
Cc1cccc(C2=NOC(C)C(=O)N2)c1 (stereo not drawn) | 9.6 | 5.1
Cc1ccc(C)c(Cn2ccnc2CNC2CCCCC2)c1 | 0.5 | 1.9
O=C(Nn1cnc2c(cnn2-c2ccccc2)c1=O)c1cc(=O)c2ccccc2o1 | 29.5 | 23.5
CCC(=O)Nc1cc(Cl)ccc1C(=O)N(C)Cc1nccn1CC | 18.3 | 13.1
CN1CCN(c2nc3ccccc3nc2NS(=O)(=O)c2ccc3c(c2)OCCO3)CC1 | 1.8 | -0.6

A stretch from the list above, for reference:
SMILES | NPYLR7 ag | NPYLR7 ag max-min
CC(C)CCn1c(COc2ccccc2)nnc1SC1CCCCNC1=O (stereo not drawn) | 13.5 | 4.5
CN(C)c1ccc(NC(=O)c2ccccc2Cl)cc1CN(C(=O)c1ccc(F)cc1)C1CCCCC1 | 2.4 | 4.2
CCOC(=O)c1cc(CC)sc1NC(=O)Cn1c(C)nc2ccccc2c1=O | 2.6 | -8.7
Cc1ccc(OCC(O)Cn2cnc3scc(-c4ccccc4)c3c2=O)c(C)c1 (stereo not drawn) | 3.2 | 4.0
COc1ccc(N2C(=O)CN(C(=O)c3cccc(Cn4nc(C)cc4C)c3)CC23CCCC3)cc1 | -3.6 | -9.1
COc1ccc(C(=O)CSc2nnc(SCC(=O)c3ccc(OC)cc3)s2)cc1 | -1.9 | -3.9
CC(C)Nc1ccc(C(=O)NCC2CCCCC2)cn1 | -3.6 | -7.1
COc1ccc2sc(C(=O)N3CCCc4cc(C)ccc43)c(Cl)c2c1 | -4.3 | -1.1
CCCOC1CCCN(C(=O)c2cccc(Cl)c2)C1 (stereo not drawn) | -2.9 | 1.1
COc1ccc(NC(=O)c2cccc(CN3CCCC3C)c2)cc1OC (stereo not drawn) | 9.5 | 6.9
Cc1cc(CNC(=O)CC2(Cc3ccccc3)C(=O)N(C)c3ccccc32)n[nH]1 (stereo not drawn) | 8.5 | 1.6
Cn1ncc(SCc2ccccc2)c(Br)c1=O | 9.2 | 6.3
CCOC(=O)c1cc2c(=O)n3cccc(C)c3nc2n(CC(C)C)c1=NC(C)=O | 1.4 | 7.4
Cc1oc(-c2ccc([N+](=O)[O-])c(Cl)c2)cc1C(=O)N1CCOCC1 | -3.1 | -3.1
O=C(Nc1cccc(-n2cccn2)c1)C1CCCN(Cc2cccc3c2OCO3)C1 (stereo not drawn) | 5.0 | 2.0
COc1ccc(C(=O)N2CCC3(CC2)OCC(C(=O)O)N3C(=O)c2cccc(C)c2)cc1OC (stereo not drawn) | 12.5 | 10.0
Cc1cccc(C2=NOC(C)C(=O)N2)c1 (stereo not drawn) | 9.6 | 5.1
Cc1ccc(C)c(Cn2ccnc2CNC2CCCCC2)c1 | 0.5 | 1.9
O=C(Nn1cnc2c(cnn2-c2ccccc2)c1=O)c1cc(=O)c2ccccc2o1 | 29.5 | 23.5
CCC(=O)Nc1cc(Cl)ccc1C(=O)N(C)Cc1nccn1CC | 18.3 | 13.1
CN1CCN(c2nc3ccccc3nc2NS(=O)(=O)c2ccc3c(c2)OCCO3)CC1 | 1.8 | -0.6

(next part)
SMILES | NPYLR7 ag | NPYLR7 ag max-min
O=C(O)c1csc(CSc2nnc(-c3ccncc3)n2-c2ccccc2Cl)n1 | -5.9 | -12.0
COc1ccc(NC(=O)CSc2nnc(NC(C)C)s2)cc1OC | -2.3 | -2.7
O=C1CCC2C(=O)N(CC(=O)N3CCCCC3)C(=O)C2C1 (stereo not drawn) | -4.6 | -6.0
CCOc1ccc2nc(SCC(=O)Nc3ccccc3C#N)sc2c1 | -4.2 | -7.1
CN(C(=O)Cc1csc2nc(-c3ccc(Cl)cc3)cn12)C1CCCCC1 | 3.9 | 1.3
Cc1ccc(OCC2c3ccsc3CCN2C(=O)CNC(C)(C)C)c(C)c1 (stereo not drawn) | -5.6 | -1.1
CCN(CC)CC(O)COC1CCC(C(C)(C)C)CC1 (stereo not drawn) | -0.9 | -3.8
Cc1ccc(COc2coc(CSc3nncn3C)cc2=O)cc1 | 10.6 | 3.1
CCC(O)CN1CCN(C(C)C(=O)NC2CCC(C)CC2)CC1 (stereo not drawn) | 1.3 | 0.0
O=c1cccc2n1CC1CC2CN(CCOc2ccc(-c3[nH]ncc3-c3ccccc3)c(O)c2)C1 (stereo not drawn) | 8.7 | 11.1
O=C1NCCN(S(=O)(=O)NCc2ccccc2)C1Cc1ccccc1 (stereo not drawn) | 0.5 | -2.3
CC(=O)NCC1CCCN(Cc2cn(Cc3ccccc3)nc2-c2cc3ccccc3o2)C1 (stereo not drawn) | 4.9 | 3.9
CCn1c(=O)c(C(=O)NCCOC)nn(-c2cccc(C)c2)c1=O | 10.1 | 13.0
CCCCC(=O)Nc1c(-c2ccc(C)cc2)nc2ccccn12 | -4.3 | -3.0
CCCNc1nc(SCCC)nc2c1cnn2CCNC(=O)C(CCC)CCC | 1.2 | -1.2
COCC1(C(=O)NCc2ccc3c(c2)n(C)c(=O)n3C)CCC1 | 1.6 | -2.9
Cc1ccc(NC2CCCN(C(=O)c3cccs3)C2)cc1C (stereo not drawn) | 1.6 | -0.6
O=C(N[C@@H]1CCCCC1NC(=O)C1CCCN(S(=O)(=O)c2ccc(F)cc2)C1)c1ccc(F)cc1 (stereo partly drawn) | 2.5 | 10.2
COc1ccc(OC)c(-n2c(Cc3ccc(O)cc3)n[nH]c2=O)c1 | 17.7 | 12.0
Cc1ccccc1-n1c(-c2ccc(Cl)cc2)n[nH]c1=S | -1.7 | -5.6
Cc1ccc(C(C)NC(=O)CN(C)CCc2cn[nH]c2)cc1 (stereo not drawn) | 13.5 | 5.4
CN=c1scc(-c2ccc(Cl)s2)n1N=Cc1ccc2c(c1)OCO2 | -9.8 | -9.1
O=C(c1cc(C(F)(F)F)cc(C(F)(F)F)c1)N1CCC(c2nc(-c3ccc4c(c3)OCO4)no2)CC1 | 16.2 | 11.6
